Rango dissoc inh: prevents RanGTP from dissociating the Rango-importin beta complex. Biochemical FRET Rango-importin beta, RanGTP-induced dissociation. O95149+P62826. AID 540253. Potency, µM (doses to about 46.1 µM), without a hit: top-dose activity change, negative = inhibition. actives 0.071% (n = 340,000); active means falling FRET ratio curve, often poorly fitted, with flat reads before Ran was added; inconclusive means other falling curves, or compound fluorescence or quenching; inactive means flat or rising ratio curve;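 further: potency means the concentration at half of the fitted maximal effect; % of control where 0% means no effect; nearly all actives have a fitted effect of over 45% in size; -100% = wells without RanGTP and RCC1; the record marks most hits as doubtful in a second field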
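Rango (0.1 uM)–importin beta (0.25 uM) complex; RanGTP-RCC1 trigger; 45 min RT; CFP/YFP FRET read.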
Rango complex inh: prevents formation of the Rango-importin beta complex; Q14974; Rango CFP/YFP FRET sensor + importin beta, 45 min; Potency, µM (titrated, usually from 92.2 µM), for the others: at the highest dose inhibition of complex formation; actives 0.031% (n = 340,000); AID 540263; active = rising FRET ratio curve, often small or poorly fitted; inconclusive = mostly compound fluorescence or quenching in the first reads; inactive = flat curves in all reads;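 further: potency means the concentration at half of the fitted maximal effect; 0% = DMSO wells and 100% = buffer wells lacking importin beta; nearly all actives have a fitted effect of over 15% in size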
Target sequence (Q14974 whole entry, looked up): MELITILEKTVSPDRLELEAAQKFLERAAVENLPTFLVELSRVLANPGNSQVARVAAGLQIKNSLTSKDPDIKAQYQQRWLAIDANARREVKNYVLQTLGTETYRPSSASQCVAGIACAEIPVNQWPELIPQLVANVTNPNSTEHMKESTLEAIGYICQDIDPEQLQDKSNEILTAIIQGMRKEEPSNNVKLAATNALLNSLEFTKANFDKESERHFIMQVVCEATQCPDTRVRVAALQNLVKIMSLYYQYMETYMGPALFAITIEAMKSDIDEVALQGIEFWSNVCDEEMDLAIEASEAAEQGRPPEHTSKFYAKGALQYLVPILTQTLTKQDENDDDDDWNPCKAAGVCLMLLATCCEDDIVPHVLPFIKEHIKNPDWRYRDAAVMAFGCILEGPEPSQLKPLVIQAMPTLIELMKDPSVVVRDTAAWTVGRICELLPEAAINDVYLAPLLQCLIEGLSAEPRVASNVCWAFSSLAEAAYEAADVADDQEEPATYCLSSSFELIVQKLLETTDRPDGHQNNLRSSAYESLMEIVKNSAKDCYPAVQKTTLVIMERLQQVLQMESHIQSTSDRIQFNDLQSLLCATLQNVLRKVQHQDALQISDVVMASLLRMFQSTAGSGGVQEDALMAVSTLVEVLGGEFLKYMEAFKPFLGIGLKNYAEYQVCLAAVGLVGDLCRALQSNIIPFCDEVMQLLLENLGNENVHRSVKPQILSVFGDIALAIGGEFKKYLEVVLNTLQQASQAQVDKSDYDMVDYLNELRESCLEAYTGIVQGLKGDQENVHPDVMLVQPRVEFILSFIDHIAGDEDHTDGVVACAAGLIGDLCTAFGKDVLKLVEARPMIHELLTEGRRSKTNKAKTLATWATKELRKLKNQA
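FRET biosensor Rango (snurportin 1 IBB between N-terminal EYFP and C-terminal Cerulean), 50 nM in PBS/1 mM DTT/0.02% Tween-20/0.1% BSA, preincubated 5 min RT with compound; 0.125 microM importin beta added, 45 min RT, CFP/YFP FRET ratio read.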
GLA inh pH 4.5: alpha-galactosidase A (human) inhibition, pH 4.5. P06280. AID 1467. 230,000 tested, under 10 active. purified enzyme, 4-MU-alpha-Gal fluorescence, pH 4.5. activity change, negative = inhibition, % at 105 µM; inconclusive = small, poorly fitted or top-dose-only inhibition, or a rising curve; inactive = flat fitted curve, though single readings scatter; no compound was filed as active;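 further: 0% = full activity with enzyme and -100% = basal without enzyme; dose as in the result columns while the protocol names 77 µM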
miR-21 reporter: miR-21 reporter, rising signal. HeLa miR-21 FLuc reporter, luciferase, 48 h. Potency, µM (doses to about 38.3 µM), without a hit: top-dose reporter change, positive = more light. 340,000 tested, under 10 active. AID 2288; active = well fitted rising curve with a large enough effect; inconclusive = small, poorly fitted or top-dose-only effect; inactive = no such curve, though single readings can be large or run the other way;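 further: % of control where 0% means no effect; miR-21 action dims this reporter so a rising signal means less miR-21 action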
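HeLa miR-21-FLuc reporter line, endogenous miR-21; 2000 cells/well in DMEM/10% FBS; compound titration up to ~40uM final, 48 h, 37 degree Celsius; luciferase detection reagent, 15 min lysis, CCD luminescence.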
Starred values were filed as active, the others as inactive; ? = inconclusive; . = not tested or not shown. Not all compounds are listed (hit frequency here may not be typical).

A first look:
SMILES | Rango dissoc inh | Rango complex inh | GLA inh pH 4.5 | miR-21 reporter
Cc1onc(-c2c(Cl)cccc2Cl)c1C(=O)NN1CCCCCC1 | 31% | 2.2% | -19 | -1%
COc1ccc(Oc2nc3ccccc3n(C)c2=O)cc1 | 9% | 0.7% | 2 | -13%

The list itself, repeating the preview:
SMILES | Rango dissoc inh | Rango complex inh | GLA inh pH 4.5 | miR-21 reporter
Cc1onc(-c2c(Cl)cccc2Cl)c1C(=O)NN1CCCCCC1 | 31% | 2.2% | -19 | -1%
COc1ccc(Oc2nc3ccccc3n(C)c2=O)cc1 | 9% | 0.7% | 2 | -13%
COc1cccc(CNC(=O)c2ccccc2NC(=O)C2=C(C)OCCS2)c1 | -1% | -1.1% | . | 14%
Cc1nc(N)nc(N)c1-c1ccc([N+](=O)[O-])cc1 | -10% | -0.8% | . | .
O=C(Nc1cccc(S(=O)(=O)N2CCCCC2)c1)c1ccc([N+](=O)[O-])o1 | -7% | 0.6% | -27 | ?
Cc1ccc(NC(=O)C(C)Sc2nnc3ccccn23)cc1 (stereo not given) | -8% | -0.2% | . | .
Cc1onc(-c2c(Cl)cccc2Cl)c1C(=O)Nc1ccc(C(N)=O)cc1 | -2% | 3.1% | . | 5%
Cc1cccc(C(=O)Nc2cccc(C(=O)N/N=C/c3ccccn3)c2)c1 | -12% | 0.7% | . | -5%
OCCCc1nc2n(n1)C(c1ccccc1)C=C(c1ccccc1)N2 (stereo not given) | ? | ? | -3 | 0%
COc1ccc(S(=O)(=O)N2CCCCCC2)cc1C(=O)N(C)Cc1ccc(C(C)(C)C)cc1 | 2% | 0.2% | . | -2%
CCc1ccccc1NC(=O)CN(C)S(=O)(=O)c1ccc2c(c1)c(=O)n(C)c(=O)n2C | 3% | 0.0% | -4 | -1%
CCc1nnc(NC(=O)CSc2nnc3c(C)cc4c(C)ccc(C)c4n23)s1 | 4% | -2.3% | 3 | 22%
COCCNC(=S)Nc1ccc(S(=O)(=O)Nc2ncccn2)cc1 | 5% | 1.0% | -5 | -2%
CCOc1cc(C(=O)Nc2cccc(C(C)=O)c2)ccc1OCC(=O)N1CCCCC1 | -1% | 3.6% | 5 | -2%
O=C(NCc1cn(-c2ccccc2)nc1-c1ccccc1)c1cccc([N+](=O)[O-])c1 | -16% | 6.9% | -8 | -8%
Cc1ccc(C)c(C(=O)CCC(=O)OCn2nnc3ccccc3c2=O)c1 | 1% | 0.7% | . | .
CC1(C)C(=O)C2(CCCCC2)C(=O)OC1c1cccc([N+](=O)[O-])c1 (stereo not given) | 1% | 0.3% | 3 | -2%
O=C(N/N=C/c1ccccc1C(=O)O)c1cccc(S(=O)(=O)Nc2cc(Cl)ccc2Cl)c1 | -1% | 1.9% | 5 | -3%
CC1CCC2(CC1)SCC(=O)N2c1ccccc1 (stereo not given) | -19% | -3.9% | -1 | -1%
COc1ccccc1N1CCN(C2CCCN(Cc3ccccc3OCCO)C2)CC1 (stereo not given) | -4% | -3.8% | . | 0%

11 compounds already listed, ordered by heavy-atom count, high to low.
SMILES | Rango dissoc inh | Rango complex inh | GLA inh pH 4.5 | miR-21 reporter
COc1ccc(S(=O)(=O)N2CCCCCC2)cc1C(=O)N(C)Cc1ccc(C(C)(C)C)cc1 | 2% | 0.2% | . | -2%
O=C(N/N=C/c1ccccc1C(=O)O)c1cccc(S(=O)(=O)Nc2cc(Cl)ccc2Cl)c1 | -1% | 1.9% | 5 | -3%
CCc1ccccc1NC(=O)CN(C)S(=O)(=O)c1ccc2c(c1)c(=O)n(C)c(=O)n2C | 3% | 0.0% | -4 | -1%
O=C(NCc1cn(-c2ccccc2)nc1-c1ccccc1)c1cccc([N+](=O)[O-])c1 | -16% | 6.9% | -8 | -8%
CCc1nnc(NC(=O)CSc2nnc3c(C)cc4c(C)ccc(C)c4n23)s1 | 4% | -2.3% | 3 | 22%
Cc1cccc(C(=O)Nc2cccc(C(=O)N/N=C/c3ccccn3)c2)c1 | -12% | 0.7% | . | -5%
O=C(Nc1cccc(S(=O)(=O)N2CCCCC2)c1)c1ccc([N+](=O)[O-])o1 | -7% | 0.6% | -27 | ?
OCCCc1nc2n(n1)C(c1ccccc1)C=C(c1ccccc1)N2 (stereo not given) | ? | ? | -3 | 0%
CC1(C)C(=O)C2(CCCCC2)C(=O)OC1c1cccc([N+](=O)[O-])c1 (stereo not given) | 1% | 0.3% | 3 | -2%
Cc1ccc(NC(=O)C(C)Sc2nnc3ccccn23)cc1 (stereo not given) | -8% | -0.2% | . | .
CC1CCC2(CC1)SCC(=O)N2c1ccccc1 (stereo not given) | -19% | -3.9% | -1 | -1%

Next section.
SMILES | Rango dissoc inh | Rango complex inh | GLA inh pH 4.5 | miR-21 reporter
O=C(c1ccccc1)N1CCN(c2ccc(NCc3ccc4c(c3)OCO4)cc2)CC1 | 17% | -3.7% | -3 | 24%
O=S(=O)(NC(=S)Nc1ccccc1)c1ccc(F)cc1 | -3% | 0.1% | 2 | -2%
CC(C)NC(=O)NC(=O)CSc1nnc(COc2ccccc2F)n1C(C)C1CC2CCC1C2 (stereo not given) | 1% | 4.1% | -9 | ?
C[C@H]1CCC[C@]2(O[C@@H](CCO)C[C@@H](O)[C@@H]2O)O1 | -4% | 4.8% | . | .
COc1ccc(N2CCN(C(=S)Nc3ccc(C)cc3C)CC2)cc1 | 1% | -3.8% | 1 | -1%
O=C(/C=C/c1ccc2ccccc2n1)N1CCN(S(=O)(=O)c2ccc(F)cc2)CC1 | -2% | ? | 2 | 29%
Cc1ccc(C)c(Cn2c(=O)n(CCCC(=O)NCc3ccco3)c(=O)c3ccccc32)c1 | 7% | -2.7% | 0 | -5%
Cc1ccccc1C(O)c1ccncc1 (stereo not given) | 14% | -2.7% | -5 | -3%
COc1ccc(-c2cc(C)no2)cc1S(=O)(=O)N1CCCN(Cc2ccccc2Cl)C1 | -7% | -1.2% | . | -3%
CC(C)(C)OC(=O)NNc1c2ccccc2nc2ccccc12 | ? | ? | . | 2%
CSC1=NS(=O)(=O)c2c(C)nn(C)c2S1 | -3% | 0.2% | 1 | -2%
Cc1ccc(S(=O)(=O)N2CCN(C(=O)c3ccnn3C)CC2)cc1C | ? | -6.3% | . | -3%
Cc1ccc2c(c1)C(c1ccccc1)CC(=O)O2 (stereo not given) | 1% | 1.1% | -1 | -5%
O=c1oc2ccccc2n1Cn1c(=O)oc2ccccc21 | 5% | -1.7% | 9 | -7%
O=C(CN(C(=O)c1csnn1)c1cccc2ccccc12)NCc1ccccc1 | 7% | -1.4% | . | 0%
C=C(C)COc1ccc(-c2nc(N)ncc2-c2ccc(Br)cc2)c(O)c1 | 0% | 7.1% | . | 2%
COc1ccc(N(CC(=O)NN=C2CCCCCCC2)S(=O)(=O)c2ccccc2)cc1 | 0% | 0.1% | -2 | 0%
O=C1NC(c2ccccc2)C(C(=O)c2cccs2)=C1O (stereo not given) | -16% | -3.2% | 0 | -17%
Cc1cc(C)c2[nH]c(=O)c(CN(C(=O)C3CCCO3)C3CCCC3)cc2c1 (stereo not given) | . | . | 0 | -1%
Cc1oc2c(C)c3oc(=O)c(CCC(=O)NCCCn4ccnc4)c(C)c3cc2c1C | 0% | 8.2% | . | -1%
Cc1cccc(C(=O)O/N=C(/c2ccccc2)c2ccncc2)c1 | 8% | 5.4% | 3 | -2%
CCOc1ccc(Cn2ccnc2CCl)cc1[N+](=O)[O-] | 5% | ? | -1 | -10%
CC1CC(C)(C)NC(=S)N1CC(=O)NCc1ccc2c(c1)OCO2 (stereo not given) | 2% | 0.8% | 1 | -1%
COc1ccc(CCNC(=O)CC(=O)N/N=C/c2ccc(C(=O)O)cc2)cc1OC | -13% | -3.9% | . | -2%
Cc1nnsc1C(=O)N1CCCC(N2CCN(c3cccc(C(F)(F)F)c3)CC2)C1 (stereo not given) | -6% | -1.8% | . | 8%
COc1cc(OC)cc(C(=O)NCC(=O)Nc2ccc(OC)c(Cl)c2)c1 | 12% | 1.0% | . | -5%
Cc1cc(NS(=O)(=O)c2ccc(NC(=O)CSc3nc4ncc(Br)cc4[nH]3)cc2)nc(C)n1 | -12% | -0.2% | 1 | -8%
c1ccc(CSc2ccc(-c3cccnc3)nn2)nc1 | -7% | -1.0% | -2 | -43%
Cc1ccc(C(=O)Nc2onc(C)c2C#N)cc1 | -14% | 3.8% | -12 | -15%
COC(=O)c1c(-c2ccsc2)sc2ccc(-c3cc(OC)c(OC)c(OC)c3)cc12 | 11% | -0.5% | . | .
C=C[C@](C)(CC[C@@]1(C)C(C)CC(OC2OC(C)C(OC3OC(COC(C)=O)C(O)C(O)C3O)C(O)C2O)[C@@]2(C)C(C)=CCCC12)OC1OC(C)C(O[C@@H]2O[C@@H](C)C(O)C(O)[C@H]2O)C(O)C1O (stereo not given in full) | 3% | 0.0% | . | .
CCOc1cc(CNCC2CCCO2)cc(Br)c1OCC(N)=O (stereo not given) | -15% | 0.3% | -11 | -2%
CCN(c1ccccc1)S(=O)(=O)c1ccc(Cl)c(NC(=O)COC(=O)c2ccc(O)cc2)c1 | 18% | -0.5% | ? | -3%
COc1ccccc1NC(=S)N(Cc1ccco1)Cc1cc2cccc(C)c2[nH]c1=O | 8% | 3.4% | -5 | -1%
Cc1ccccc1-c1nnc(SCc2ccc(F)cc2)o1 | 9% | -0.4% | 0 | -30%
O=C(Nc1ccccc1F)c1c[nH]c(=O)[nH]c1=O | 9% | 6.3% | -4 | -20%
O=C(Cc1ccc(Cl)cc1)Nc1ccccc1C(=O)N1CCCC1 | 10% | 1.3% | . | -1%
CCOC(=O)C(=O)NCC(c1cccs1)S(=O)(=O)c1ccc(F)cc1 (stereo not given) | -2% | -0.4% | . | .
O=C(Nc1nc(-c2ccccc2)cs1)c1ccc2c(=O)n3c(nc2c1)CCCCC3 | 2% | -0.4% | -11 | 13%
CCC(Sc1ccc(C(=O)O)cc1)C(=O)O (stereo not given) | 21% | 3.9% | 1 | 3%
CC(C)(C)C(=O)c1cnc(Nc2ccccc2)s1 | -15% | 1.0% | 1 | -70%
COc1ccc(OC)c(C(=O)c2ccc(C(=O)Nc3cccc4ccccc34)cc2)c1 | -7% | -0.8% | -7 | -6%
CCOC(=O)c1nnn2c1nc(SCC(C)=O)c1ccccc12 | -7% | -1.5% | 1 | -3%
COc1ccccc1-n1cnnc1SC(C)C(=O)Nc1cccc([N+](=O)[O-])c1 (stereo not given) | 14% | 4.9% | -3 | 0%
O=C(NNC(=S)NC(=O)c1ccccc1[N+](=O)[O-])c1ccccc1 | 0% | -1.7% | -3 | -5%
C1=C(c2ccccc2)N2CCN=C2S1 | 1% | 0.4% | 8 | -1%
Cc1ccc(NC(=O)CSc2nnc(Cc3ccccc3)c(=O)[nH]2)c(C)c1 | 0% | 5.5% | . | .
Cn1ccnc1Sc1cc(NCCCO)c([N+](=O)[O-])c2nonc12 | 1% | -5.4% | -13 | ?
Cc1c2cnn(CC(=O)NCCN3CCOCC3)c(=O)c2c(C)n1Cc1ccccc1F | 8% | 2.3% | . | .
Cc1ccccc1N=C1NC(=O)/C(=C/c2cccnc2)S1 | 6% | -1.0% | -5 | -1%
The list goes on.
SMILES | Rango dissoc inh | Rango complex inh | GLA inh pH 4.5 | miR-21 reporter
CCC(CC)C(=O)NCCc1ccc(S(N)(=O)=O)cc1 | 4% | 2.7% | 1 | 1%
CCCCc1nnc(NC(=O)c2nc3nccc(C)n3n2)s1 | -4% | -0.4% | 4 | -3%
CCOC(=O)C1CCN(c2c(NCCN(CC)c3ccccc3)c(=O)c2=O)CC1 | 2% | 3.2% | 1 | -2%
O=C(NC(C(=O)N/N=C/c1ccccn1)c1n[nH]c(=O)c2ccccc12)c1ccccc1 (stereo not given) | 0% | -0.1% | -3 | -16%
Cc1nnc(NC(=O)CSc2nnc(CNC(=O)c3ccccc3)n2-c2ccccc2)s1 | 3% | ? | -7 | 7%
c1ccc(C2CNCc3c2ccc2ccccc32)cc1 (stereo not given) | -11% | -1.6% | -9 | 22%
Cc1sc2nc(SC3CCOC3=O)n(Cc3ccccc3)c(=O)c2c1C (stereo not given) | 14% | -1.0% | -19 | -2%
CC1=C(C(=O)Nc2cccnc2)C(c2ccc3c(c2)OCO3)C2=C(CCCC2=O)N1 (stereo not given) | -17% | ? | 5 | -4%

Screening data deposited in PubChem by National Center for Advancing Translational Sciences (NCATS).
